Screening data from PubChem.
NPYLR7 ag: mosquito NPYLR7 agonism; HEK293T NPYLR7/Galpha15, GCaMP6s calcium fluorescence; activation, % at 10 µM; 270,000 compounds, 0.15% hits; AID 1259423; in the data active = activation above about 40%;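 note: 0% = vehicle and 100% = reference agonist at the receptor; some compounds past the cut are filed as inactive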
NPYLR7 ag max-min: recorded beside NPYLR7 ag, whose call it bears; activation, %; measured here: Max-Min RFU normalised activation; some inactives read as strong as hits;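 span of the calcium signal over five minutes; 0% = vehicle and 100% = native peptide agonist; compound fluorescence can raise it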
* hit, by the source's call; & = joins results of further samples. An excerpt; count on the stated rates, not on these rows.

SMILES	NPYLR7 ag	NPYLR7 ag max-min
O=C1NCCCCC1Sc1nc(C2CC2)nc2c1c(=O)[nH]c(=O)n2C1CC1 (stereo not given)	0.6	-0.6
Cc1ccc(CC2CCCN(S(=O)(=O)c3cnn(C)c3)C2)cc1 (stereo not given)	-3.5	423.4
CCc1ccc(N/N=C(\C#N)c2nc3ccccc3[nH]2)cc1	-4.5	-11.3
Cc1nc(C2(NC(=O)C3CC4CCCC(C3)C4=O)CCCCC2)no1 (stereo not given)	-5.0	-6.0
COc1ccccc1C(O)c1ncc(-c2cccc(C(F)(F)F)c2)[nH]1 (stereo not given)	1.2	-2.1
CCOc1ccccc1CNC(=O)c1cc(-c2cc(OC)c(OC)c(OC)c2)nc2ccccc12	17.9	0.0
CC(C)NC(=O)C1(C)Cc2c(-c3cccc(C(F)(F)F)c3)ccnc2O1 (stereo not given)	-5.3	-7.5
CNC(=O)c1cc(S(=O)(=O)NC(C)c2oc3ccccc3c2C)cn1C (stereo not given)	1.8	-1.0
CCOc1cc(N2CCOCC2)c(OCC)cc1NC(=O)CC(C)(C)C	-1.3	0.1
Cc1ccccc1-n1cnnc1SCC(=O)NCC(c1ccccc1Cl)N1CCCC1 (stereo not given)	-4.4	-5.5

Entries of single compounds from above.
`CC(C)NC(=O)C1(C)Cc2c(-c3cccc(C(F)(F)F)c3)ccnc2O1` (stereo not given) is listed with NPYLR7 ag = -5.3; NPYLR7 ag max-min = -7.5
`Cc1ccc(CC2CCCN(S(=O)(=O)c3cnn(C)c3)C2)cc1` (stereo not given) is listed with NPYLR7 ag = -3.5; NPYLR7 ag max-min = 423.4

The results go on.
SMILES	NPYLR7 ag	NPYLR7 ag max-min
O=C(CC1CCCCC1)N1CCN(c2ncnc3c2nnn3Cc2ccccc2)CC1	-4.8	-12.6
O=C(c1cc2cc(F)ccc2s1)N1CCN(S(=O)(=O)c2ccccc2F)CC1	3.5	1.4
CN1CCN2CCN(c3cncc(C(=O)N4CCCCC4)n3)CC2C1=O (stereo not given)	20.9	11.2
CC1(Cc2ccc(C(F)(F)F)o2)C(=O)Nc2ccc(-c3ccc(S(C)(=O)=O)cc3)cc21 (stereo not given)	3.5	2.9
CCC(O)(CC)C(=O)NN(C(=O)CN1CCCC1)c1ccc(C)cc1	-5.6	-10.6
CCc1ccc(S(=O)(=O)N(C(=O)c2ccncc2)c2ccc(OC(=O)c3ccncc3)cc2)cc1	0.1	-1.1
CCOc1nc(-c2ccc(C)cc2)n(-c2cccc(NC(=O)Nc3cccc(OC)c3)c2)n1	-1.2	-3.5
CCC(NC1CCCCC1)c1nc2ccccc2c(=O)n1Cc1ccccc1 (stereo not given)	6.7	5.5
CC(=O)c1cccc(S(=O)(=O)N2CCC(C(=O)NC(c3ccccc3)C3CC3)CC2)c1 (stereo not given)	-5.0	-5.1
Cc1cccc(C(=O)Oc2coc(CSc3nccc(C)n3)cc2=O)c1	-15.3	-14.8
CCc1nnc(NC(=O)c2c(Cl)c(Cl)c(Cl)c(Cl)c2Cl)s1	-3.6	-9.4
Cc1nccn1CCC1CCN(C2CCC3(CCNCC3)CC2)CC1	3.1	1.9
CCN1CCCC1CNC(=O)CCC1CCN(Cc2cc(Cl)ccc2O)CC1 (stereo not given)	-3.7	-7.3
COc1ccc(-c2csc(=Nc3cc(F)ccc3F)n2-c2ccccc2Oc2ccccc2)cc1	-5.9	-8.4
CC(=O)OC1C2CCCC1C(N1CCCCC1)CC2 (stereo not given)	2.3	1.2
C=CCN(CC1CC(c2ccccc2C)=NO1)C(=O)NC(C)C (stereo not given)	-0.2	6.5
COc1cn(CC(=O)N2CCc3ccccc32)c(CSc2nc(C)cs2)cc1=O	-5.5	-9.8
COc1cccc(S(=O)(=O)N2CCN(c3ncccc3C(=O)NCc3ccc4c(c3)OCO4)CC2)c1	29.8	18.5
CCCN(CC(=O)NC(=O)Nc1ccccc1)Cc1ccc(C#N)cc1	-1.9	-2.5
Cc1nc2c(=O)n(CC(=O)N3CCc4ccccc43)nc(-c3ccco3)c2s1	-0.5	-3.1

Taken from the entries so far for reference:
SMILES	NPYLR7 ag	NPYLR7 ag max-min
C=CCN(CC1CC(c2ccccc2C)=NO1)C(=O)NC(C)C (stereo not given)	-0.2	6.5
COc1cn(CC(=O)N2CCc3ccccc32)c(CSc2nc(C)cs2)cc1=O	-5.5	-9.8
COc1cccc(S(=O)(=O)N2CCN(c3ncccc3C(=O)NCc3ccc4c(c3)OCO4)CC2)c1	29.8	18.5
CCCN(CC(=O)NC(=O)Nc1ccccc1)Cc1ccc(C#N)cc1	-1.9	-2.5
Cc1nc2c(=O)n(CC(=O)N3CCc4ccccc43)nc(-c3ccco3)c2s1	-0.5	-3.1

(listing goes on)
SMILES	NPYLR7 ag	NPYLR7 ag max-min
CC(=O)Nc1ccc(S(=O)(=O)Oc2ccc(Cl)cc2CN(CC2CCCO2)C(=O)c2cccs2)cc1 (stereo not given)	22.2	18.0
CC1=C(C(=O)NC2CC(C)(C)Cc3c2cnn3-c2cccc(F)c2)OCCO1 (stereo not given)	2.3	-2.4
Cc1nn(-c2ccc(F)cc2)c(Cl)c1C(=O)N(C)CC(N)=O	-1.3	-3.5
Clc1ccc2c(c1)c(-c1ccccc1)nc1nncn12	-1.9	-6.3
CC(NC(=O)c1cc(NC(=O)c2ccc([N+](=O)[O-])cc2Cl)ccc1N1CCCCC1)c1ccccc1 (stereo not given)	-2.2	3.8
COC(=O)CN1CC2(CCN(C(=O)c3ccc(Cl)nc3)CC2)OC1=O	0.4	33.6
CC(C)C(=O)Nc1ccc(C(=O)Cn2nc(-c3cccs3)oc2=O)cc1	1.0	20.3
Cc1[nH]c2ccccc2c1CC(=O)N1CCC(CO)(Cc2ccccc2)CC1	0.5	-6.9
CCOC(=O)C1(Cc2ccccc2Cl)CCN(Cc2cccc3c2OCO3)CC1	-2.6&12.0	-4.6&16.3
CN(c1ccccc1)S(=O)(=O)c1ccc(C(=O)N2CCCCC2C(N)=O)cc1 (stereo not given)	1.4	3.2

Single values from the results shown.
Clc1ccc2c(c1)c(-c1ccccc1)nc1nncn12 @ NPYLR7 ag max-min = -6.3
Cc1nn(-c2ccc(F)cc2)c(Cl)c1C(=O)N(C)CC(N)=O @ NPYLR7 ag max-min = -3.5

Next records:
SMILES	NPYLR7 ag	NPYLR7 ag max-min
CC(C)(C)c1cccc(CN2CCOC(CN)C2)c1O (stereo not given)	7.3	5.2
Cn1nc(N2CCOCC2)c(=O)n(C)c1=O	17.8	12.7
O=C(NCCC1COc2ccccc2O1)c1ccc(OC2CCN(C(=O)C3CC3)CC2)cc1 (stereo not given)	7.3	6.5
Cc1csc(SCC(=O)N2CCC(CO)(Cc3ccccc3Cl)CC2)n1	23.2	5.6
Cc1c(NC(=O)CN2CCC3(CC2)CC(=O)c2cc(Cl)ccc2O3)c(=O)n(-c2ccccc2)n1C	-8.1	-15.1
O=c1[nH]c(CN2CCN(S(=O)(=O)c3cc(F)ccc3F)CC2)nc2cc(Cl)ccc12	2.0	6.0
O=C(NC1CC1)C(=O)N1CCN(CC(F)F)CC1	1.4	11.5
Cc1cc(=O)[nH]c(-n2nc(C)c(CCC(=O)NCc3ccccn3)c2C)n1	12.2	7.9
CCOc1ccccc1NC(=O)N1CCC2(CC1)SCCN2C(=O)c1ccc(C)cc1	-2.3	10.0
COc1ccc(C)cc1N=Nc1ccc(O)c2c1ccc[n+]2[O-]	1.0	-3.3
CC(C)CN1C(=O)CC(=O)NC1SCC(=O)N1CCCc2ccccc21 (stereo not given)	11.7	5.7
Cc1cnn(-c2cc(C(F)(F)F)nc(-c3ccccc3)n2)c1	1.0	0.3
CC(=O)Nc1ccc(Nc2ccc(-n3nc(C)cc3C)nn2)cc1	-3.0	-8.6
COc1cc2c(cc1OC)C(CNC(=S)Nc1cccc(C)c1)N(Cc1cccc(C)c1)CC2 (stereo not given)	7.9	7.0
CCNS(=O)(=O)c1ccc2c(c1)N(C(=O)c1occc1C)CC2	6.5	3.7
Cc1cnc(C)c(N2CCN(Cc3ccc(-c4ccn[nH]4)o3)CC2)n1	-2.1	-4.6
CCc1ccc2ncc(S(=O)(=O)c3ccccc3)c(N3CCC4(CC3)OCCO4)c2c1	-6.7	-14.9
Cc1ncoc1C(=O)N1CCOC(Cc2cccc(C(F)(F)F)c2)C1 (stereo not given)	7.6	3.9
Cc1cc(OCC(=O)N(C)Cc2ccc(N3CCOCC3)cc2)ccc1Cl	3.0	1.7
CC1(C(=O)NCc2ccc(Cl)cc2)CCN1C(=O)C1(c2ccc(Cl)cc2)CC1 (stereo not given)	-2.2	-2.9
Cn1ccnc1-c1ccc(N2CCC(C(N)=O)(N3CCCCC3)CC2)nn1	6.5	6.3
CC1(C)CC(=O)C2C(=Nc3ccccc3NC2c2ccccc2O)C1 (stereo not given)	-8.6	-15.5
OC[C@@H]1CN2CCN(Cc3ccccc3)C[C@@H]2[C@H]1c1ccccc1	5.6	12.1

Given with bars between the fields: entries from further up
compound | NPYLR7 ag | NPYLR7 ag max-min
Cc1nc(C2(NC(=O)C3CC4CCCC(C3)C4=O)CCCCC2)no1 (stereo not given) | -5.0 | -6.0
CN(c1ccccc1)S(=O)(=O)c1ccc(C(=O)N2CCCCC2C(N)=O)cc1 (stereo not given) | 1.4 | 3.2
COc1cccc(S(=O)(=O)N2CCN(c3ncccc3C(=O)NCc3ccc4c(c3)OCO4)CC2)c1 | 29.8 | 18.5
Cn1ccnc1-c1ccc(N2CCC(C(N)=O)(N3CCCCC3)CC2)nn1 | 6.5 | 6.3
CCCN(CC(=O)NC(=O)Nc1ccccc1)Cc1ccc(C#N)cc1 | -1.9 | -2.5
CNC(=O)c1cc(S(=O)(=O)NC(C)c2oc3ccccc3c2C)cn1C (stereo not given) | 1.8 | -1.0
COc1cn(CC(=O)N2CCc3ccccc32)c(CSc2nc(C)cs2)cc1=O | -5.5 | -9.8
